Vaccinia stage – blocks a specific stage of Vaccinia orthopoxvirus infection, primary screen, cell-based, single point; Vaccinia-infected cells, mCherry/Venus stage reporter fluorescence; hits give low values; some inactives read as strong as hits; activity change (mCherry), % (no concentration beside the values); hit rate 0.01% among 89,000; AID 1053133, 2014;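 active = mCherry past -33% and 40 or more points under the early reporter, replicates agreeing; inconclusive = past -33% without that gap or agreement; tested in A549 cells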;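 also: scaled between vehicle wells and reference inhibitor wells; 23 nL library stock went into each well; one replicate is shown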
Vaccinia stage Venus – second read-out of Vaccinia stage, no call of its own (marks repeat the call); activity change (Venus), %; measured here: Venus reporter, other viral stage;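 negative = less Venus signal; first of two replicates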
* marks the source's active call; other numbers are inactive results. Only part of the results is shown; the hit share may differ from the screen's.

For COCC(=O)Nc1ccc2c(c1)OC[C@H](C)N(Cc1cc(F)ccc1F)C[C@@H](C)[C@H](OC)CN(C)C2=O the results were Vaccinia stage -19 and Vaccinia stage Venus -10.
For COc1ccc2c3c(n(C)c2c1)[C@@H](CO)N(C)CC31CCN(S(=O)(=O)c2cccs2)CC1 the results were Vaccinia stage -24 and Vaccinia stage Venus -17.
Screening CN1C(=O)c2cc(NC(=O)C3CCCCC3)ccc2OC[C@@H]2O[C@@H](CC(=O)NCCc3ccncc3)CC[C@H]21 returned Vaccinia stage 1 and Vaccinia stage Venus 2.
COc1ccc(S(=O)(=O)N(C)C[C@@H]2Oc3ccc(NC(=O)CCN4CCOCC4)cc3CC(=O)N([C@@H](C)CO)C[C@@H]2C)cc1 was read as Vaccinia stage -2 and Vaccinia stage Venus 5.
`C[C@@H]1CCCCO[C@H](CN(C)C(=O)Nc2ccc3c(c2)OCO3)[C@@H](C)CN([C@H](C)CO)C(=O)c2cc(NS(=O)(=O)c3ccccc3)ccc2O1` gave Vaccinia stage 27 and Vaccinia stage Venus 27.
For COc1ccc2c3c([nH]c2c1)[C@@H](CO)N(C(=O)c1ccccn1)CC31CN(C(=O)C2CCC2)C1 the results were Vaccinia stage 11 and Vaccinia stage Venus 7.
O=C(C[C@@H]1CC[C@@H]2[C@H](COC[C@@H](O)CN2C(=O)c2cccnc2)O1)NCc1ccc(-c2ccccc2)cc1 was read as Vaccinia stage 2 and Vaccinia stage Venus 3.
C[C@@H]1CN([C@H](C)CO)C(=O)Cc2cc(NS(=O)(=O)c3ccc(Cl)cc3)ccc2O[C@@H]1CN(C)C(=O)Nc1ccc(C(F)(F)F)cc1 was read as Vaccinia stage -7 and Vaccinia stage Venus 8.
Screening CCCNC(=O)[C@H]1[C@H](CO)[C@H]2Cn3c(ccc(-c4ccccc4OC)c3=O)[C@@H]1N2C(=O)NCCC returned Vaccinia stage 14 and Vaccinia stage Venus 3.
CCCNC(=O)N1CC2(C1)[C@H](c1ccccc1)[C@@H](CO)N2Cc1cccc(Cl)c1 was read as Vaccinia stage -9 and Vaccinia stage Venus -5.
`CO[C@H]1CN(C)C(=O)c2cc(NS(C)(=O)=O)ccc2OC[C@@H](C)N(Cc2ccccc2)C[C@H]1C` gave Vaccinia stage 2 and Vaccinia stage Venus 4.
`CO[C@H]1CN(C)C(=O)c2ccc(NC(=O)C3CC3)cc2OC[C@H](C)N(CCC(F)(F)F)C[C@H]1C` gave Vaccinia stage -7 and Vaccinia stage Venus -14.
N[C@H]1CC[C@H](CCn2cc(-c3ccccn3)nn2)O[C@@H]1CO was read as Vaccinia stage -2 and Vaccinia stage Venus 1.
CN1C(=O)c2cc(NS(=O)(=O)c3ccc(Cl)cc3)ccc2OC[C@H]2O[C@@H](CC(=O)O)CC[C@H]21 was read as Vaccinia stage 18 and Vaccinia stage Venus 14.
`C[C@@H]1CN([C@@H](C)CO)C(=O)c2cc(-c3cccc(F)c3)cnc2O[C@H]1CN(C)C` gave Vaccinia stage 23 and Vaccinia stage Venus 16.
C[C@@H]1CN([C@H](C)CO)C(=O)Cc2cc(NS(=O)(=O)c3cn(C)cn3)ccc2O[C@@H]1CN(C)Cc1ccc(Oc2ccccc2)cc1 was read as Vaccinia stage -14 and Vaccinia stage Venus 3.
CCCNC(=O)[C@@H]1[C@@H](CO)[C@@H]2Cn3c(ccc(-c4ccncc4)c3=O)[C@@H]2N1C(=O)c1ccccc1F was read as Vaccinia stage 6 and Vaccinia stage Venus 12.
`C[C@H](CO)N1C[C@H](C)[C@H](CN(C)Cc2ccc(F)cc2)Oc2ncc(-c3ccccc3F)cc2C1=O` gave Vaccinia stage -34 and Vaccinia stage Venus -25.
`C[C@@H]1CN([C@@H](C)CO)C(=O)c2cccc(NC(=O)C3CCCCC3)c2O[C@@H]1CN(C)C(=O)Nc1ccc(C(F)(F)F)cc1` gave Vaccinia stage inconclusive.
For Cc1noc(C)c1NC(=O)Nc1cccc2c1O[C@@H](CN(C)S(=O)(=O)c1ccc(F)cc1)[C@H](C)CN([C@@H](C)CO)C2=O the results were Vaccinia stage 3 and Vaccinia stage Venus 4.
`COCC(=O)Nc1ccc2c(c1)C(=O)N(C)C[C@@H](OC)[C@H](C)CN(C(=O)c1ccccc1F)[C@@H](C)CO2` gave Vaccinia stage 5 and Vaccinia stage Venus 5.
`Cc1ccc(S(=O)(=O)N[C@H]2CC[C@H](CCNC(=O)CN3CCOCC3)O[C@@H]2CO)cc1` gave Vaccinia stage 2 and Vaccinia stage Venus 6.
COc1ccc(CN(C)C[C@@H]2Oc3ccc(NS(=O)(=O)c4ccc(Cl)cc4)cc3CC(=O)N([C@H](C)CO)C[C@H]2C)cc1 was read as Vaccinia stage -27 and Vaccinia stage Venus -21.
Screening C[C@H]1CN([C@@H](C)CO)C(=O)c2cc(-c3ccc(C#N)cc3)cnc2O[C@@H]1CN(C)C(=O)Nc1ccccc1 returned Vaccinia stage 9 and Vaccinia stage Venus 3.
`CO[C@@H]1CN(C)C(=O)c2ccc(NC(=O)c3cccc(F)c3)cc2OC[C@H](C)N(C(C)=O)C[C@@H]1C` gave Vaccinia stage 5 and Vaccinia stage Venus -7.
O=C(C[C@H]1C=C[C@H](NC(=O)NC2CCCCC2)[C@@H](CO)O1)NCc1ccc(F)cc1 was read as Vaccinia stage -10 and Vaccinia stage Venus 15.
`C[C@H]1CN([C@@H](C)CO)S(=O)(=O)c2ccc(-c3cccnc3)cc2O[C@H]1CN(C)C(=O)NC1CCCC1` gave Vaccinia stage 13 and Vaccinia stage Venus 12.
Screening COc1ccc([C@@H](OC(=O)Nc2ccc(SC)cc2)[C@@H](CCO)OC)cc1O returned Vaccinia stage 12 and Vaccinia stage Venus 10.
For O=C(Cc1cccnc1)N1CC(=O)N2[C@H](CO)[C@@H](c3ccc(C#CC4CCCC4)cc3)[C@@H]2C1 the results were Vaccinia stage -16 and Vaccinia stage Venus -15.
For Cc1ccccc1S(=O)(=O)N1CCCCN2[C@H](CO)[C@@H](c3ccc(-c4cccc(F)c4)cc3)[C@H]2C1 the results were Vaccinia stage inconclusive.
Screening C[C@@H]1CN([C@@H](C)CO)C(=O)c2cc(/C=C/c3ccccc3)cnc2O[C@@H]1CN(C)S(=O)(=O)c1cn(C)cn1 returned Vaccinia stage 5 and Vaccinia stage Venus -4.
For Cc1ccc(S(=O)(=O)Nc2ccc3c(c2)CC(=O)N([C@H](C)CO)C[C@@H](C)[C@H](CN(C)CC2CC2)O3)cc1 the results were Vaccinia stage -2 and Vaccinia stage Venus -2.
CS(=O)(=O)N1[C@@H](C#N)[C@H](c2ccccc2)[C@@H]1CO was read as Vaccinia stage 4 and Vaccinia stage Venus 5.
`C/C=C/c1ccc([C@H]2[C@@H](C#N)N(C(=O)NC3CCCC3)[C@H]2CO)cc1` gave Vaccinia stage inconclusive.
Screening CNC[C@@H]1OCCCC[C@@H](C)Oc2ccc(NS(=O)(=O)c3ccc(C)cc3)cc2C(=O)N([C@@H](C)CO)C[C@H]1C returned Vaccinia stage 9 and Vaccinia stage Venus 11.
`CN1c2ccc(C3=CCCCC3)cc2[C@H]2[C@H](CCN2C(=O)C2CCCCC2)[C@H]1CO` gave Vaccinia stage inconclusive.

The last 5 records of the section before open the next one.
For Cc1ccc(S(=O)(=O)Nc2ccc3c(c2)CC(=O)N([C@H](C)CO)C[C@@H](C)[C@H](CN(C)CC2CC2)O3)cc1 the results were Vaccinia stage -2 and Vaccinia stage Venus -2.
CS(=O)(=O)N1[C@@H](C#N)[C@H](c2ccccc2)[C@@H]1CO was read as Vaccinia stage 4 and Vaccinia stage Venus 5.
`C/C=C/c1ccc([C@H]2[C@@H](C#N)N(C(=O)NC3CCCC3)[C@H]2CO)cc1` gave Vaccinia stage inconclusive.
Screening CNC[C@@H]1OCCCC[C@@H](C)Oc2ccc(NS(=O)(=O)c3ccc(C)cc3)cc2C(=O)N([C@@H](C)CO)C[C@H]1C returned Vaccinia stage 9 and Vaccinia stage Venus 11.
`CN1c2ccc(C3=CCCCC3)cc2[C@H]2[C@H](CCN2C(=O)C2CCCCC2)[C@H]1CO` gave Vaccinia stage inconclusive.
CNC(=O)C[C@@H]1CC[C@H]2[C@H](COc3ccc(NC(=O)c4ccc(F)cc4)cc3C(=O)N2C)O1 was read as Vaccinia stage -7 and Vaccinia stage Venus -7.
For Cc1ccc(S(=O)(=O)N2C[C@H](O)COC[C@H]3O[C@H](CC(=O)NCc4ccc5c(c4)OCO5)CC[C@@H]32)cc1 the results were Vaccinia stage -10 and Vaccinia stage Venus -3.
For C[C@@H]1CN([C@@H](C)CO)C(=O)c2cc(NS(=O)(=O)c3ccc(Cl)cc3)ccc2O[C@H]1CN(C)C(=O)NC1CCCCC1 the results were Vaccinia stage 8 and Vaccinia stage Venus -2.
Screening O=C(C[C@H]1CC[C@H]2[C@@H](COC[C@@H](O)CN2Cc2ccncc2)O1)NCc1ccccc1Cl returned Vaccinia stage 13 and Vaccinia stage Venus 4.
Screening O=C(Nc1ccccc1F)N[C@@H]1CC[C@@H](CCNC(=O)C2CCOCC2)O[C@@H]1CO returned Vaccinia stage 0 and Vaccinia stage Venus 2.
For C[C@H]1CCCCO[C@@H](CN(C)S(=O)(=O)c2ccc(F)cc2)[C@@H](C)CN([C@@H](C)CO)C(=O)c2cc(N(C)C)ccc2O1 the results were Vaccinia stage -24 and Vaccinia stage Venus -11.
`CCC(=O)N1C[C@@H](C)[C@H](OC)CN(C)C(=O)c2cc(NC(=O)Nc3ccccc3)ccc2OC[C@@H]1C` gave Vaccinia stage -3 and Vaccinia stage Venus 4.
Screening COc1ccc(S(=O)(=O)N(C)C[C@@H]2OCCCC[C@@H](C)Oc3ccc(NS(=O)(=O)c4ccc(F)cc4)cc3C(=O)N([C@H](C)CO)C[C@H]2C)cc1 returned Vaccinia stage inconclusive.
Screening C[C@@H]1CN([C@H](C)CO)C(=O)Cc2cc(NC(=O)Nc3ccc(F)cc3)ccc2O[C@H]1CN(C)C(=O)Nc1ccc2c(c1)OCO2 returned Vaccinia stage 8 and Vaccinia stage Venus 8.
`C[C@@H]1CN([C@@H](C)CO)C(=O)c2cc(NS(=O)(=O)c3ccc(F)cc3)ccc2O[C@H]1CN(C)S(=O)(=O)c1cn(C)cn1` gave Vaccinia stage 6 and Vaccinia stage Venus 2.
Screening CCNC(=O)C[C@H]1CC[C@@H]2[C@H](COc3ccc(NS(=O)(=O)c4ccccc4C)cc3C(=O)N2C)O1 returned Vaccinia stage 0 and Vaccinia stage Venus 3.
CC(C)NC(=O)N(C)C[C@@H]1Oc2ccc(NS(=O)(=O)c3ccc(F)cc3)cc2CC(=O)N([C@@H](C)CO)C[C@H]1C was read as Vaccinia stage -3 and Vaccinia stage Venus 2.

The final 2 records of the part before lead into the next:
Screening CCNC(=O)C[C@H]1CC[C@@H]2[C@H](COc3ccc(NS(=O)(=O)c4ccccc4C)cc3C(=O)N2C)O1 returned Vaccinia stage 0 and Vaccinia stage Venus 3.
CC(C)NC(=O)N(C)C[C@@H]1Oc2ccc(NS(=O)(=O)c3ccc(F)cc3)cc2CC(=O)N([C@@H](C)CO)C[C@H]1C was read as Vaccinia stage -3 and Vaccinia stage Venus 2.
For C[C@H](CO)N1C[C@H](C)[C@@H](CN(C)S(=O)(=O)c2ccc(F)cc2)OCCCC[C@H](C)Oc2ccc(N(C)C)cc2C1=O the results were Vaccinia stage -26 and Vaccinia stage Venus -6.
`C[C@@H]1CCCCO[C@@H](CN(C)Cc2ccc(C(F)(F)F)cc2)[C@H](C)CN([C@H](C)CO)C(=O)c2cc(NC(=O)Cc3ccccc3)ccc2O1` gave Vaccinia stage inconclusive.
CN1C(=O)c2cc(NC(=O)c3ccc(Cl)cc3)ccc2OC[C@H]2O[C@H](CC(=O)NCc3cccc(F)c3)CC[C@@H]21 was read as Vaccinia stage -30 and Vaccinia stage Venus -24.
`O=C(CC(F)(F)F)N1C[C@@H]2[C@H](c3ccccc31)[C@H](CO)N2C(=O)Cc1ccccc1` gave Vaccinia stage 0 and Vaccinia stage Venus 8.
Screening CC(C)NC(=O)Nc1ccc2c(c1)C(=O)N([C@H](C)CO)C[C@H](C)[C@H](CN(C)Cc1ccc(Oc3ccccc3)cc1)O2 returned Vaccinia stage -21 and Vaccinia stage Venus -20.
Screening O=C(C[C@H]1CC[C@@H]2[C@H](COC[C@H](O)CN2Cc2ccc(Cl)cc2)O1)NCc1ccccc1Cl returned Vaccinia stage inconclusive.
Screening CCCNC(=O)C[C@H]1CC[C@@H]2[C@@H](COc3ccc(NS(=O)(=O)CC)cc3C(=O)N2C)O1 returned Vaccinia stage 5 and Vaccinia stage Venus 0.
Screening O=C(Nc1ccc(F)cc1)N1CCCCN2[C@@H](CO)[C@@H](c3ccc(C#Cc4ccccn4)cc3)[C@@H]2C1 returned Vaccinia stage -22 and Vaccinia stage Venus -20.
`C[C@H](CO)N1C[C@H](C)[C@H](CN(C)C(=O)Nc2ccccc2)OCCCC[C@H](C)Oc2ccc(NC(=O)C3CCCCC3)cc2C1=O` gave Vaccinia stage -16 and Vaccinia stage Venus -20.
Screening Cc1noc(C)c1S(=O)(=O)Nc1ccc2c(c1)C(=O)N([C@H](C)CO)C[C@@H](C)[C@H](CN(C)S(C)(=O)=O)O2 returned Vaccinia stage 17 and Vaccinia stage Venus 18.
For CC(=O)N(Cc1cccc(F)c1)C[C@@H]1[C@@H](c2ccccc2)[C@@H](CO)N1C(C)=O the results were Vaccinia stage 18 and Vaccinia stage Venus 17.
For C[C@@H]1CN([C@@H](C)CO)C(=O)Cc2cc(NC(=O)CCC(F)(F)F)ccc2O[C@H]1CN(C)CC1CC1 the results were Vaccinia stage 23 and Vaccinia stage Venus 10.
C[C@@H]1CCCCO[C@H](CN(C)C(=O)Nc2ccc3c(c2)OCO3)[C@H](C)CN([C@@H](C)CO)C(=O)c2cc(NC(=O)C3CCCCC3)ccc2O1 was read as Vaccinia stage -14 and Vaccinia stage Venus -9.

Screening data as filed in PubChem.
